Compound activity: PubChem, several laboratories
Beta2AR agonist: activates human beta-2 adrenergic receptor causing internalization | 340,000 compounds, 0.43% hits | Am2.2-beta2AR cells, FAP receptor internalization, flow cytometry; reference of the scale not given here | response, % (concentration not given with the values) | P07550 | AID 504454;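 active = response above a set limit, near 3 SD of response in nonfluorescent compounds, cut at about 42% in these data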;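 also: stock transfer was 100 nL into about 11 µL; a reference agonist was the positive control; negative values mostly stem from fluorescent compounds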
Target sequence (P07550 whole entry, looked up): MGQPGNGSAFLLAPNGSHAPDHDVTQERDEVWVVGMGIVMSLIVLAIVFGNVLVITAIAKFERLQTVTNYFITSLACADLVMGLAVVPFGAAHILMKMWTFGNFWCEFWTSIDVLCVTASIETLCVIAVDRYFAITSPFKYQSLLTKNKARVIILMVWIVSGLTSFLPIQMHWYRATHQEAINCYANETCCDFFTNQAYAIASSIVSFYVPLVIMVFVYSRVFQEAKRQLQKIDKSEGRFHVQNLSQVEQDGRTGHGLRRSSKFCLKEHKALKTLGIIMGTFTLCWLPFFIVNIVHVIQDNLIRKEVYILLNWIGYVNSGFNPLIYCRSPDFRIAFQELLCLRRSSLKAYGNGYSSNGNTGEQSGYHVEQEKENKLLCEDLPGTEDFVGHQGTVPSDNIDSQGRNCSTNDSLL
RanGTP-Impb inh: inhibitors of RanGTP-importin-beta interaction, primary screen, biochemical, FRET, CFP-Ran, YFP-importin-beta, homogeneous. cell-free CFP-Ran/YFP-importin-beta FRET ratio. inhibition, % (no concentration beside the values). 300,000 compounds, 1.1% hits. AID 2216;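 active = most replicates above 15%; inconclusive = exactly half above 15%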;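 also: 0% = DMSO wells and 100% = Ran loaded with GDP instead of GTP; wells of about 40 µL received 100 nL stock; the first replicate is given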
HNF4A DNA FP: change in binding of human HNF4 alpha to DNA | P41235 | HNF4a-FITC DNA binding, fluorescence polarization, 1 h | activity change, % at 10 µM | 360,000 compounds, 0.3% hits | AID 1224865; in the data active = activity change above about 30%, passing the limit was not always enough;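 also: controls were the assay level and a saturating level of protein; the project sought stronger binding though the title names inhibitors; some compounds called inactive have numbers as strong as hits; positive values seem to mean higher polarization but the record does not say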
Target sequence (P41235 whole entry, looked up): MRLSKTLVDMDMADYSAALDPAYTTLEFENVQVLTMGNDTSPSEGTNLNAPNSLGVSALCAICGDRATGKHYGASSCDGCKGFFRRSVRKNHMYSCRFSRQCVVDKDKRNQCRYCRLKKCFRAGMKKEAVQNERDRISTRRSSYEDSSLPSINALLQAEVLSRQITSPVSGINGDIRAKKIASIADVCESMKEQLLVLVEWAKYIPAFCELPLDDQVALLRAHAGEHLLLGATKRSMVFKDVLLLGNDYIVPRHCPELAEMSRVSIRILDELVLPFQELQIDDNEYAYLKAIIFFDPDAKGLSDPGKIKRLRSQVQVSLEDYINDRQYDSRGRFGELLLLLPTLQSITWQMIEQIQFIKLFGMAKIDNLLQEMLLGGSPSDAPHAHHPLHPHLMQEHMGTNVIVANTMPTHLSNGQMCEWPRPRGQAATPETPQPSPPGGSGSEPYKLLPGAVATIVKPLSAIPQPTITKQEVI
Calb FLC: C. albicans growth modulation with fluconazole | 300,000 compounds, 0.57% hits | growth inhibition, % (concentration not given with the values) | C. albicans CaCi-2 (fluconazole-resistant clinical isolate) + fluconazole, Alamar Blue growth, 48 h;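 active = most replicates above 75%; inconclusive = exactly half above 75%; inactive = most below 75%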;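 also: all wells also contain fluconazole at 8 µg/ml as a sub-toxic cotreatment; 0% = median of DMSO wells and 100% = median of geldanamycin control wells; wells of about 8 µL received 7.5 nL stock; the first replicate is given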
LANA-H2B inh: blocks KSHV LANA binding to histone H2A/H2B; Q9QR71; 320,000 compounds, 0.6% hits; inhibition, % (concentration not given with the values); cell-free LANA-H2A/H2B peptide, fluorescence polarization; AID 2629; in the data active = inhibition mostly above about 10%, no sharp cut-off; inactive = mostly below about 6.7%;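 also: stock transfer was 7.5 nL into about 10 µL; 0% = median of vehicle wells and 100% = median of positive control wells; one replicate is shown; the record names a cut of 25% in any replicate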
Vif A3G: inhibitors of Vif binding to APOBEC3G peptide, primary screen, biochemical, TR-FRET, GST-Vif 1-94, biotin-A3G peptide, dose response retest (AID 1117319); 260,000 compounds, 0.57% hits; one-dose inhibition, %; IC50 in µM for titrated hits; TR-FRET GST-Vif / biotin-A3G peptide binding; higher % means a stronger effect; test concentration not given here; strong numbers were not always called active;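 active = above the screen mean plus three standard deviations and confirmed in dose response; inconclusive = results disagree or hit not tested in dose response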;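 also: Vif residues 1-94 fused to GST binding biotinylated APOBEC3G peptide 110-148; 0% = full assay without inhibitor and 100% = GST in place of GST-Vif; retest series ran down from 100 µM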
ALR H2O2 inh: blocks human ALR sulfhydryl oxidase activity; P55789; purified ALR, DTT oxidation, H2O2 HRP-luminol luminescence; inhibition, % (concentration not given with the values); 290,000 compounds, 3.8% hits; AID 485317;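 active = mean and each replicate at 75% or more; inconclusive = only one of the two met; inactive = neither met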;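 also: stock transfer was 7.5 nL into about 7.5 µL; 0% = neutral wells and 100% = wells with inactivated enzyme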
Active calls of the source: *; ? = inconclusive; / = no result given.

Molecule | LANA-H2B inh | Beta2AR agonist | Calb FLC | Vif A3G | ALR H2O2 inh | HNF4A DNA FP | RanGTP-Impb inh
CC(Oc1ccc(Cl)cc1Cl)C(=O)Nc1ccc(N2CCN(C)CC2)cc1 (centres undefined) | 6.2 | -15 | 6 | 4% | -2 | 5.3 | 3.7
O=C(C[n+]1ccccc1)c1ccc(NC(=O)c2ccccc2)cc1 | -9.5 | -4 | ? | 22% | 44 | -0.2 | 0.1
Cc1ccc(CC(CC(=O)Nc2cccc(C(F)(F)F)c2)C(=O)O)cc1 (centres undefined) | 6.3 | 5 | -1 | -3% | -2 | -1.0 | -3.0
CC(=O)Oc1ccc2ccc(=O)oc2c1 | 1.1 | -3 | -5 | 4% | 10 | -1.9 | 13
CCN1c2ccccc2S(=O)(=O)c2ccccc21 | -3.0 | -3 | 0 | -8% | 0 | 0.5 | ?
CN(C(=O)c1ccccc1NC(=O)C(F)(F)F)c1ccccc1 | -1.5 | 15 | 0 | -1% | -18 | 4.2 | 3.1
COc1ccccc1N1CCN(C(=O)COc2ccc(S(=O)(=O)NC(C)C)cc2)CC1 | -1.2 | -3 | 1 | 1% | 12 | -4.2 | -4.0
Cc1cccc(C)c1NC(=O)C(c1cccc([N+](=O)[O-])c1)N(C)C(=O)c1ccccn1 (centres undefined) | 0.3 | 8 | 6 | / | -2 | 1.4 | -1.0
Cc1ccc(C)c(S(=O)(=O)N(C(=O)c2ccncc2)c2ccc(OC(=O)c3ccncc3)cc2)c1 | -1.5 | 4 | -1 | / | -5 | 3.2 | 1.5
CCCCCCC1CC(CC(=O)Nc2ccc([N+](=O)[O-])cc2)C(=O)O1 (centres undefined) | 0.1 | -5 | -2 | 9% | -1 | 0.8 | 3.3
Cc1ccc(NC(=O)N2CCC(C(=O)NCc3ccccc3)CC2)cc1 | 0.6 | 3 | -8 | 6% | / | -0.8 | 2.8
COc1ccccc1NC(=S)N(Cc1ccco1)Cc1cc2cccc(C)c2[nH]c1=O | -1.6 | 35 | 0 | / | -5 | -3.8 | 2.5
CC(C(=O)NCCN1C(=O)S/C(=C\c2cccnc2)C1=O)N1C(=O)c2ccccc2C1=O (centres undefined) | 2.2 | -13 | 13 | 9% | 0 | 1.9 | 2.9
COCCNC(=O)CCCCCn1c(=S)[nH]c2ccccc2c1=O | 0.3 | -28 | -1 | 2% | -4 | 0.0 | ?
CCSC1=C(C#N)C(c2cccc(Br)c2)CC(=O)N1 (centres undefined) | 1.4 | 0 | 17 | 11% | -1 | 0.5 | -0.3
CCCn1c2ccccc2c2nnc(SC(CC)C(=O)Nc3cc(C)on3)nc21 (centres undefined) | 0.2 | -2 | -11 | -23% | -13 | -0.5 | 5.9
COc1ccc(CNC(=O)COC(=O)c2ccc(C(=O)c3ccccc3)cc2)cc1 | -2.2 | -2 | / | 1% | -1 | 7.0 | /
O=C(NC1=NCCS1)C1CC(=O)N(c2ccc(Cl)cc2)C1 (centres undefined) | 0.9 | -3 | -2 | 7% | -2 | -1.6 | 3.0
CC1CCCCN1C(=O)C12CCC(C)(C(=O)C1)C2(C)C (centres undefined) | 6.0 | 0 | -6 | 4% | 3 | 1.3 | -2.2
Clc1cccc(Nc2nc(-c3ccncc3)cs2)c1 | 1.3 | 1 | 10 | -2% | -10 | -1.9 | 0.7
CCCc1nc(SCC(=O)NCC2CCCO2)c2c(=O)n(C)c(=O)n(C)c2n1 (centres undefined) | 5.2 | 4 | -6 | / | -6 | 0.0 | -0.5
CC(=O)Nc1cc2c3c(c1)CCN3C(=O)CC2 | -5.0 | 5 | -7 | / | / | 0.1 | -0.6
CC(C)NC(=O)c1onc(CSc2ccccc2F)c1C(=O)O | 3.3 | 2 | 3 | -3% | -3 | -2.6 | 0.1
Cc1ccc(S(=O)(=O)Nc2cccc(C(=O)NCc3cccnc3)c2)cc1F | 0.7 | -10 | -7 | 5% | -2 | 3.5 | -2.3
Nc1nc2nc(-c3ccccc3)cc(C(F)(F)F)c2s1 | -2.7 | -13 | 21 | / | 7 | 0.2 | -0.7
CC1(C)OC(C(O)(c2ccccc2)c2ccccc2)[C@@H](C(O)(c2ccccc2)c2ccccc2)O1 (some centres undefined) | 2.7 | -6 | 3 | / | -5 | -1.6 | 2.2
COc1ccc(-c2oc3ccccc3c2C(=O)OCc2ccc([N+](=O)[O-])cc2)cc1 | 2.9 | 1 | 4 | / | 0 | -0.7 | 4.0
O=C(N/N=C/c1ccc([N+](=O)[O-])cc1)c1cccnc1 | 4.3 | -6 | 0 | / | -9 | -1.4 | 4.6
COc1cc(NC(=O)CSc2nnc3n2C(C)(C)Cc2ccccc2-3)cc(OC)c1 | -0.8 | 13 | -3 | -3% | 7 | 0.5 | -0.7
Cn1c(=O)n(Cc2ccccc2Cl)c(=O)c2c1[nH]c(=S)n2C | 2.9 | 14 | 6 | 3% | 43 | 2.5 | ?
O=C(COC(=O)CC1SC(N2CCCC2)=NC1=O)Nc1c(F)c(F)c(F)c(F)c1F (centres undefined) | -6.2 | 2 | / | / | / | -2.8 | /
CC(C)OCCCn1c(-c2ccco2)nc2nc3ccccc3nc21 | -1.2 | -25 | -3 | 21% | 98* | 16 | ?
COC(=O)Cc1ccc(NC(=S)NCCSc2ccc(Cl)cc2)cc1 | 0.4 | 11 | -4 | 2% | -6 | 5.4 | 0.1
COC(=O)C(O)(CC(=O)Nc1ccc(Cl)cc1F)C(F)(F)F (centres undefined) | -0.2 | -1 | 32 | -2% | -7 | 6.7 | 1.5
N#Cc1ccc(N/N=C/c2cn(-c3ccccc3)nc2-c2ccccc2)c([N+](=O)[O-])c1 | -7.2 | -12 | -32 | -9% | 2 | 0.8 | -2.4
C=CCNC(=O)C1CCN(S(=O)(=O)c2ccccc2)CC1 | 0.1 | -9 | -22 | 4% | -22 | -0.1 | 6.6
NS(=O)(=O)c1ccc(CCNS(=O)(=O)c2cccs2)cc1 | -5.0 | 3 | -15 | 3% | 2 | 6.5 | -1.8
CCc1nc(SCC(=O)N2CC(=O)Nc3ccccc32)c2c(C)c(C)sc2n1 | 6.4 | -10 | 12 | -53% | -2 | 0.7 | 1.0
O=S(=O)(Nc1ccc(Cl)cc1)c1ccc(N2CCOCC2)c(NC(=S)NC2CC2)c1 | -8.9 | 1 | 26 | / | -4 | -2.3 | /
CCOC(=O)Nc1ccc(NS(=O)(=O)c2ccc(C)cc2)cc1 | -5.5 | -5 | -3 | 3% | / | -1.6 | -0.9
O=C(CN1C(=O)c2ccc([N+](=O)[O-])cc2C1=O)NCc1ccco1 | 3.3 | 2 | -8 | / | -26 | -0.8 | -3.6
O=C1OC(c2cccs2)=N/C1=C/c1ccc(-c2cccc(C(=O)O)c2)o1 | / | -3 | / | ? | / | -53 | /
Cc1cc(C(=O)N/N=C/c2c(C)nn(-c3ccccc3)c2Cl)n[nH]1 | 4.1 | 6 | 3 | -11% | 0 | 2.8 | 2.7
Cn1c(SCC(=O)C(C)(C)C)nnc1-c1ccc(F)cc1 | 0.2 | -8 | -6 | -1% | 4 | 1.8 | 1.4
C=CCN(CC=C)CC(=O)Nn1c(C)ccc1C | / | -6 | / | 26% | / | -5.9 | /
OCc1cc(-c2ccccn2)no1 | -4.9 | 2 | 1 | / | -3 | 0.7 | 0.8
O=C(NCCS(=O)(=O)N1CCN(c2ccccc2F)CC1)c1ccc(Br)cc1 | -1.4 | -5 | -5 | / | -2 | -0.9 | -0.2
O=C(NCC1CCCO1)c1onc(CSc2cccc3ccccc23)c1C(=O)O (centres undefined) | -1.5 | -2 | 8 | 3% | 62 | -0.6 | 0.0
COc1cc(/C=N/NC(=O)CCC(=O)Nc2ccc(C)cc2)ccc1O | -0.2 | 2 | -19 | 2% | 29 | -13 | 0.1
Cc1c(C(=O)N2CCOCC2)sc(NC(=O)Cc2ccccc2)c1C#N | -5.4 | -1 | 1 | -4% | -2 | 1.6 | -2.3
O=[N+]([O-])c1cc(F)cc(F)c1Nc1ccc(F)cc1 | / | -1 | / | 17% | / | 0.8 | /
CCOC(=O)c1cnc(-n2nc(C)cc2C)nc1N(CC)CC | 1.3 | -3 | -39 | 4% | -13 | 5.8 | 1.5
CC(C)NC(=O)NC(=O)COC(=O)c1c2c(nc3ccccc13)CCC2 | -2.9 | 16 | 7 | / | -5 | -4.4 | -1.4
CCOC(=O)C1(Cc2cccc(OC)c2)CCN(Cc2cccc(OC)c2OC)CC1 | 3.2 | -3 | -20 | -2% | -9 | -4.4 | 12
CC(C)(C)c1ccc(-c2n[nH]c(=S)n2/N=C/c2ccncc2)cc1 | 7.8 | -4 | 16 | / | 31 | -1.9 | -6.0
CC(C)N(C1=N/C(=C\c2ccco2)C(=O)N1c1ccccc1)C(C)C | 6.0 | 9 | 4 | ? | / | -0.6 | 8.4
COc1cc(C(C2C(=O)CC(C)(C)CC2=O)C2C(=O)CC(C)(C)CC2=O)cc(OC)c1OC | 0.6 | -6 | -8 | 36% | / | -1.8 | 2.4
COc1c(N2CCN(C(=S)Nc3ccccc3F)C(C)C2)c(F)cc2c(=O)c(C(=O)O)cn(C3CC3)c12 (centres undefined) | -2.4 | 15 | -5 | 1% | 7 | 1.7 | 2.3
CCCCOc1cccc(-c2nnc(N)s2)c1 | 3.7 | -18 | 0 | -5% | 24 | -0.5 | 1.0
Cc1ccc2nc(CSc3nc(C)cc(C)c3C#N)[nH]c2c1 | -2.2 | 2 | 32 | -1% | 38 | 3.8 | 29*
CCC1(c2ccccc2)NC(=O)N(CC(=O)Nc2ccc(S(=O)(=O)N3CC(C)CC(C)C3)cc2)C1=O (centres undefined) | -1.5 | 2 | 29 | 1% | -6 | -2.1 | 1.4
CCCN(CC(=O)Nc1ccc(F)c(F)c1F)C(=O)c1ccc(=O)n(Cc2ccccc2)n1 | -2.1 | -7 | 12 | -3% | -1 | 0.7 | /
COc1ccc(N2Nc3n[nH]c(N)c3N2)cc1 | -0.6 | 5 | 30 | 4% | 99* | -0.1 | 1.0

A second format for 6 compounds above:
Below each SMILES – LANA-H2B inh	Beta2AR agonist	Calb FLC	Vif A3G	ALR H2O2 inh	HNF4A DNA FP	RanGTP-Impb inh
CCOC(=O)C1(Cc2cccc(OC)c2)CCN(Cc2cccc(OC)c2OC)CC1
    3.2	-3	-20	-2%	-9	-4.4	12
CCC1(c2ccccc2)NC(=O)N(CC(=O)Nc2ccc(S(=O)(=O)N3CC(C)CC(C)C3)cc2)C1=O (centres undefined)
    -1.5	2	29	1%	-6	-2.1	1.4
O=C(NCCS(=O)(=O)N1CCN(c2ccccc2F)CC1)c1ccc(Br)cc1
    -1.4	-5	-5	/	-2	-0.9	-0.2
CCOC(=O)Nc1ccc(NS(=O)(=O)c2ccc(C)cc2)cc1
    -5.5	-5	-3	3%	/	-1.6	-0.9
C=CCN(CC=C)CC(=O)Nn1c(C)ccc1C
    /	-6	/	26%	/	-5.9	/
CC(C)N(C1=N/C(=C\c2ccco2)C(=O)N1c1ccccc1)C(C)C
    6.0	9	4	?	/	-0.6	8.4
